# NPR1 antag: blocks ANP-stimulated signaling of human Npr1 receptor | Potency, µM (top dose mostly 46.3 µM), without a hit: at the top dose activity change, negative = inhibition, most hits filed as inhibitors | AID 1347048 | HEK293 hNpr1 GloSensor cGMP, ANP-stimulated luminescence | P16066 | 1.6% of 76,000 active; active = well fitted inhibition curve with a large enough effect; inconclusive = small, poorly fitted or top-dose-only effect; inactive = no such curve, though single readings can be large or run the other way;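 further: nearly all actives have a fitted effect of over 60% in size; nearly all hits also lower the signal before the agonist is added; a reference antagonist and vehicle were the controls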
# Target sequence (P16066 whole entry, looked up): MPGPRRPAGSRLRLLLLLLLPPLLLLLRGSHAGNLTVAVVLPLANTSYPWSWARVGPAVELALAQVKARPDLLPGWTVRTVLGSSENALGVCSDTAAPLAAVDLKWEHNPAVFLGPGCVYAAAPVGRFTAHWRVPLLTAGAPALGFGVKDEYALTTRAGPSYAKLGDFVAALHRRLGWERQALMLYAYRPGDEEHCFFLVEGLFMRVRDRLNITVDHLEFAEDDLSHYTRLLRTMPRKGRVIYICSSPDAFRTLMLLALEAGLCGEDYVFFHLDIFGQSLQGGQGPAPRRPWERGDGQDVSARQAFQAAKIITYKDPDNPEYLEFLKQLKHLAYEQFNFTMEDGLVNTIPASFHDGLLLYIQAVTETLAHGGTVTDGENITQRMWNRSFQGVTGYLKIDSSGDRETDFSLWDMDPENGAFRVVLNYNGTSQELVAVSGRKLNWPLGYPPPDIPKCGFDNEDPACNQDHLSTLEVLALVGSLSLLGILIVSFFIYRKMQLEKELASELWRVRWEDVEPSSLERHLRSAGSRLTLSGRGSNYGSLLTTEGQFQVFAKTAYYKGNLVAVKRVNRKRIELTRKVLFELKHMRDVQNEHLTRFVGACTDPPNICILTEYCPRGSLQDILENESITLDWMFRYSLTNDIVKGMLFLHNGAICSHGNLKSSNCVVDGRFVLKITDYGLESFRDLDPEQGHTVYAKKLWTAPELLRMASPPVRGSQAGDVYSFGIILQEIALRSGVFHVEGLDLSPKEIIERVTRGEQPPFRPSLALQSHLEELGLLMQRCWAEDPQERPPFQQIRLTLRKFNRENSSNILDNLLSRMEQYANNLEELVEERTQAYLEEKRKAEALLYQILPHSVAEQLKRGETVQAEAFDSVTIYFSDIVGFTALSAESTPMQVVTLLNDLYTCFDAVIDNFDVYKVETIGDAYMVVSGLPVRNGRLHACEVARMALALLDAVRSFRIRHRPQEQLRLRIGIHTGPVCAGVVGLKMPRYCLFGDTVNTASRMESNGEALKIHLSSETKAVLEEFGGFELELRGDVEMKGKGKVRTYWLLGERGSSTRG
#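 HEK293 cells stably expressing human Npr1 and cGMP GloSensor pGS-40F, loaded 2 h with 2% GloSensor reagent, given compound 30 min at room temperature. Luminescence read before and 20 min after 0.1 nM hNppA.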
# * = called active by the depositor; ? = inconclusive; [ ] = another dose, or the depositor's remark. On the % scale 0 is the no-effect control and ±100 the full control effect; potency means the concentration at half of the fitted maximal effect. The list is partial; rates above refer to the full screens.
Structure	NPR1 antag
COc1ccc(-c2cc(N3CCN(C(=O)c4ccc(C)nc4)CC3)n[nH]2)cc1	1%
O=C(NCc1cnccn1)c1ccc(-c2ncc3cnc(-c4cccc(F)c4)cn23)cc1	1%[70.6 µM]
COC1CCOC2(CCN(C(=O)c3cccc(C)c3)CC2)C1 (stereo unspecified)	6%
Cc1ccc(Oc2c(CCC(=O)NC(C)C)c(C)nn2-c2ccccc2)cc1	-3%
CCCC1(CO)CCCN(Cc2cc(-c3ccc(C)cc3)no2)C1 (stereo unspecified)	-12%
CN(Cc1ccc(F)cc1)C(=O)c1ccc(C(F)(F)F)cc1	28%[70.6 µM]
c1ccc(-c2cnc3n[nH]c(-c4ccc5c(c4)OCO5)c3n2)cc1	-21%[70.6 µM]
O=C(NCC1CC1)c1cn(C2CN(C(=O)Nc3ccc4c(c3)OCCO4)C2)nn1	2%
O=C(NCc1nnc2ccc(-c3ccccc3)nn12)c1ccc(Cl)s1	6%
CC1=C(C(=O)N2CC(c3noc(COc4ccc(C)cc4)n3)C2)C2(CCCCC2)OC1=O	-4%
C#CCNC(=O)[C@H]1O[C@H](CCN(C)CCc2ccccc2)CC[C@@H]1O	5%[70.6 µM]
CC(=O)N1CCCCCC1c1nc(C2CC2)no1 (stereo unspecified)	-3%
Cc1nccn1CC1(CNc2ncncn2)CC1	11%
CN1c2cc(C(=O)NC3CCCCC3)ccc2C(=O)N2CCCCC21 (stereo unspecified)	2%
O=C(CCn1ccn2nc3c(c2c1=O)CCCC3)NC1CCCCC1	6%
COc1ccccc1/C=C/CN1CCCC(CNC(=O)COc2ccccc2OC)C1 (stereo unspecified)	1%
CNC(=O)N1CCC2(CC1)CC(Cc1cccc(F)c1)CCO2 (stereo unspecified)	-11%
CCCn1cc(CNC(=O)c2ccc3c(c2)n(CC)c(=O)c2ccnn23)c(C)n1	0%
O=C1CCN(C(=O)C2CCN(S(=O)(=O)c3cccs3)CC2)CCCCCCN1	0%
CN(C)C(=O)c1cccnc1CC1CC(=O)N(c2ccccc2)C1 (stereo unspecified)	-1%

# Sorted by heavy-atom count (descending): 3 of the compounds above.
Structure	NPR1 antag
CCCC1(CO)CCCN(Cc2cc(-c3ccc(C)cc3)no2)C1 (stereo unspecified)	-12%
CN(Cc1ccc(F)cc1)C(=O)c1ccc(C(F)(F)F)cc1	28%[70.6 µM]
CC(=O)N1CCCCCC1c1nc(C2CC2)no1 (stereo unspecified)	-3%

# Other entries follow:
Structure	NPR1 antag
COCCNC(=O)C[C@@H]1C[C@@H](C(C)C)[C@H](CNC(=O)CCC(=O)O)C=C1C	2%[70.6 µM]
Fc1ccc(-c2noc([C@@H]3CCCN3Cc3ccc(C(F)(F)F)cc3)n2)nc1	4%[70.6 µM]
CC(C)CCN1CCC(N2CCN(C(=O)c3ccc(F)cc3)CC2)C1=O (stereo unspecified)	5%
CCCN(CC1CCOC1)S(=O)(=O)c1cccc(F)c1 (stereo unspecified)	2%
COc1cccc(Nc2ccc3c(n2)C(C)(C(=O)NCCc2cnc[nH]2)CN(C)C3)c1 (stereo unspecified)	-6%[70.6 µM]
COc1ccc(NC(=O)c2ccc3c(c2)N(C)C2CCCCN2C3=O)cc1Cl (stereo unspecified)	-1%
O=C(Nc1ccc2c(c1)OCCO2)N1CCCCC1c1nc(CCOCC2CC2)no1 (stereo unspecified)	-6%
COc1ccccc1C1=NOC(C(=O)NC(C)(C)C)C1 (stereo unspecified)	4%
CC1(c2ccccc2)N(Cc2ccccc2F)C(=O)OC12CCN(Cc1c[nH]c3ccccc13)CC2 (stereo unspecified)	?
Cc1cccc(CC(=O)N2CCCCC2c2n[nH]c(C)n2)c1 (stereo unspecified)	-2%
CC(C)(C)CC(=O)N1CC[C@H]2NC(=O)N(c3ccc(Oc4ccccc4)cc3)C(=O)[C@H]21	2%[70.6 µM]
C[C@@H](NC(=O)c1ccccc1)c1c(-c2ccc(Cl)cc2)noc1C(=O)O	-5%[70.6 µM]
Cc1noc([C@H]2CCN(Cc3cccs3)C[C@H]2NC(=O)C2CC2)n1	0%
Cc1noc2c(NC3CCN(C)CC3)cc(-c3cccs3)nc12	9%[70.6 µM]
O=C(N[C@H]1CCN2C(=O)c3ccccc3NC(=O)[C@@H]2C1)c1ccncc1	2%[70.6 µM]
O=C1CCN(C(=O)C2CCN(C(=O)c3cnccn3)CC2)CCCCCCN1	-1%
O=C([C@@H]1C[C@H](Oc2ccccc2)CN1C(=O)CN1CCCCCC1)N1CCCC1	-18%
CC(C)c1noc(-c2cccn3c(CNC(=O)C4CC4)nnc23)n1	1%
CN(C)C(=O)C1CN(C(=O)c2ccc3c(c2)OCO3)CC12CCOCC2 (stereo unspecified)	-9%
COc1ccc(-c2noc(CC3CCN(C(=O)c4ccc5c(c4)OCO5)CC3)n2)cc1	2.8µM*

# 3 records drawn at random from those above:
Structure	NPR1 antag
COc1cccc(Nc2ccc3c(n2)C(C)(C(=O)NCCc2cnc[nH]2)CN(C)C3)c1 (stereo unspecified)	-6%[70.6 µM]
CC(C)(C)CC(=O)N1CC[C@H]2NC(=O)N(c3ccc(Oc4ccccc4)cc3)C(=O)[C@H]21	2%[70.6 µM]
COCCNC(=O)C[C@@H]1C[C@@H](C(C)C)[C@H](CNC(=O)CCC(=O)O)C=C1C	2%[70.6 µM]

# Further structures
Structure	NPR1 antag
CCn1cc(CN(C)CC2(O)CCCN(Cc3ccc(C(C)C)cc3)C2=O)cn1 (stereo unspecified)	0%
COC[C@@H]1CN(c2cnccn2)C[C@H]1C(=O)Nc1ccc(OC)nc1	-2%
COCCN1C(=O)c2ccccc2C(C(=O)Nc2ccccc2C)C12CCCCC2 (stereo unspecified)	6%
CCNC(=O)N1CC(c2nnc(C(C)C)o2)C2(CCOCC2)C1 (stereo unspecified)	3%
Cc1cccc(N(C)C(=O)Cn2c(-c3cccc(Cl)c3)nc(C)c(CCO)c2=O)c1	-9%
O=C1CC2CCCC(C1)N2C(=O)c1cccc2[nH]ccc12	-9%[70.6 µM]
CC(C)NC(=O)C[C@@H]1CCNC[C@@H]1Cc1cc(CC2CCCCC2)on1	-1%[70.6 µM]
O=c1cc(N2CCOCC2)oc2c(-c3cccnc3)nccc12	6%[70.6 µM]
COCc1cc(C[C@@H]2CC[C@H](O)[C@@H](CNC(=O)c3ccccc3)O2)no1	3%[70.6 µM]
COCc1ncc(C)n1CCNC(=O)c1cc(-c2ccc(C)c(C)c2)n[nH]1	?
O=C([C@@H]1C[C@H](Oc2ccccc2)CN1S(=O)(=O)c1cccnc1)N1CCOCC1	-2%
COc1cncc([C@@H](NC(=O)CCc2scnc2C)C2CC(O)C2)c1 (stereo partly specified)	0%
Cn1nccc1CN1CCC12Cc1ccccc1NC2=O (stereo unspecified)	6%[70.6 µM]
CCn1ncc(CN(C)C(=O)c2c(C)oc3c2CN(Cc2ccc(OC)cc2)CC3)c1C	-3%
Cc1ccc2c(c1)nc1n2[C@@H](CNC2CCOCC2)COC1	3%[70.6 µM]
O=C(c1cscn1)N1CCc2nn(CC3CC3)c(=O)n2CC1	4%
CS(=O)(=O)N1CCCN(C(=O)c2ccncc2)CCNC(=O)CC1c1ccccc1 (stereo unspecified)	4%
C[S+](=O)([O-])c1ccc(-c2ccc3ncn(-c4ccc(F)cc4F)c(=O)c3n2)cc1	0%[70.6 µM]
COc1ccccc1-c1cnc(NC(=O)c2cnccn2)c2c1CCO2	-19%[70.6 µM]
Cc1ccc(C(=O)N2CCCC3(C2)NC(=O)N(Cc2ccccc2)C3=O)cc1 (stereo unspecified)	0%
CC(C)(C)NC(=O)Cn1nc2n(c1=O)CCN(Cc1cccc(Cl)c1)C2=O	4%
Cc1nn(-c2ccc(F)cc2)c(Oc2ccccc2F)c1CCC(=O)NCC(C)C	?
COc1ccc(CNC(=O)Cn2c(-c3ccc(F)cc3)nc(C)c(CCO)c2=O)cc1	-4%
CCN1c2cc(C(=O)N3CCN(c4ccc(C)cc4)CC3)ccc2C(=O)N2CCCCC21 (stereo unspecified)	4%
FC(F)(F)c1cccc(C2=NOC3(CCCN(Cc4ccccc4)C3)C2)c1 (stereo unspecified)	-4%
O=C(NC1CCCCC1)N1CCCC(Cn2cnc3cccnc32)C1 (stereo unspecified)	3%
COCCn1c(Cn2c(C)cc(=O)n(C)c2=O)nnc1C1CC(N)C1 (stereo unspecified)	0%
COc1ncccc1-c1cnc2[nH]cc(CC(=O)Nc3ccccn3)c2c1	?
Cc1ccc(-c2noc([C@@H]3CCCN3C(=O)c3ccc(C)nc3)n2)cc1	1%
Cc1nnnn1-c1cccc(C(=O)N2CC[C@@](O)(C3CCOCC3)[C@H](C)C2)c1	-1%
Cc1ccccc1-c1[nH]nc2ncc(-c3cccc(O)c3)nc12	-19%[70.6 µM]
O=C([C@H]1C[C@H](Oc2ccccc2)CN1S(=O)(=O)Cc1ccccc1F)N1CCOCC1	-9%
O=C(C1CCC1)N1CC[C@H]2COC(=O)N2c2ccccc2C1	1%[70.6 µM]
COc1cccc(-c2cc(C3CCN(C(=O)Nc4ccc(F)cc4F)CC3)[nH]n2)c1	-15%
COc1ccc(CCC(=O)N2Cc3ccccc3OC3(CCN(C)CC3)C2)cc1	1%
COCCN1C(=O)c2cccn2CC1CNS(=O)(=O)c1c(C)noc1C (stereo unspecified)	4%
Cc1nc(-c2ccccc2OC2CN(S(=O)(=O)c3cn(C)cn3)C2)no1	7%
O=C(Nc1ccc(F)cc1)N1C[C@@H]2C[C@H](C1)c1c(NS(=O)(=O)c3ccccc3)ccc(=O)n1C2	-6%
CN(C)c1cccc(-c2nccc3c(=O)cc(N(C)C4CCOCC4)oc23)c1	-1%[70.6 µM]
O=C1NCCCN1C1CCN(Cc2cccc3ccccc23)CC1	-10%[70.6 µM]
O=C(NCc1ccc(F)cc1)N1CCCCCC1c1nc(-c2cccnc2)no1 (stereo unspecified)	-16%
O=[S+]1([O-])NCC2(CCN(Cc3cncs3)CC2)Nc2ccccc21	3%
CCCNC(=O)N1CCC(O)(c2cnc(CN3CCC3)s2)CC1	0%[70.6 µM]
O[C@@H]1C[C@@H](c2nnc3n2CCN(Cc2cccc(F)c2)C3)N(Cc2cccnc2)C1	0%
CN(Cc1ccc(N2CCOCC2)cc1)C(=O)CCC[C@H]1NC[C@@H]2C[C@H]1CN(Cc1ccccc1)C2	-10%
C=CCC(O)(CC=C)CNC1CCN(c2cccc(NC(=O)CC3CCCC3)c2)CC1	1%
COc1cc(SC)ccc1C(=O)N[C@H]1CCN2C(=O)N(c3ccc(C)cc3)C(=O)[C@@H]2C1	-5%
Cc1cnc(CCNC(=O)Nc2ccccc2F)n1C1CCC1	-12%
CC(C)N1C[C@@H](C(=O)O)C[C@H](C(=O)Nc2ccc(F)cc2)C1	4%
COCCN1CCCC1c1nc(C2CN(C(=O)c3ccccc3OC)C2)no1 (stereo unspecified)	0%
CCCNC(=O)N1CCCCCNC(=O)CC1c1ccccc1 (stereo unspecified)	3%
Cc1ccccc1CN1CC2(COCC1=O)CN(c1ccc(C(F)(F)F)cn1)C2	-1%[70.6 µM]
COCc1cc(=O)n(CC(=O)Nc2cccc(OC)c2)c(N2CCOCC2)n1	0%
Cc1ccc(C(=O)N2CC(N(Cc3cccnc3)CC(C)C)C2)s1	2%
Cc1ccc([C@H]2C[C@@H](O)[C@@H](O)[C@@H]2NCc2ccccc2)cc1	?
Cc1ccc(C(=O)N2CCC(N3C(=O)CCC3C(=O)NCc3ccccc3)CC2)c(C)c1 (stereo unspecified)	3%
Cc1cc(N2CCCN(c3nccc(-c4c(C)nn(C)c4C)n3)CC2)ccn1	0%
CS(=O)(=O)N1CC(F)(F)C[C@H]1c1nc(-c2ccncc2)no1	1%
COc1cccc(OCc2nc3c(n2Cc2ccccc2)C(=O)N(CC2CCOCC2)CCN3)c1	-12%
COc1cccc(C(=O)N2CC3(Cc4ccccc4N([S+](C)(=O)[O-])C3)C2)c1	3%

# Continued:
Structure	NPR1 antag
CCCN1CCN(c2ccc(-c3nc(C)no3)cn2)CC1	6%
COCCn1c(C)cnc1CCNC(=O)c1cc(C)nn1C	2%
COc1ccc(OC2CCN(C(C)=O)CC2)c(C(=O)N(C)Cc2ccccc2)c1	-9%
c1ccc(CN2CC[C@H](c3nnc(-c4ccco4)o3)C2)nc1	3%[70.6 µM]
CC(=O)N1CCC(O)(c2csc(CN3CCc4ccccc4C3)n2)CC1	1%[70.6 µM]
O=C(NCc1ccccc1F)c1noc(-c2ccc(F)cc2)n1	3%
O=C(c1nc(-c2ccsc2)c2ccccn12)N1CCN(c2ncccn2)CC1	-1%
CCN(CC)Cc1ccc2c(c1)CN(C(=O)NC1CCCC1)CCO2	0%
COc1ccc(CN2Cc3[nH]nc(-c4cccc(O)c4)c3CC2=O)cc1	-12%[70.6 µM]
CN(C)[C@@H]1CN(C(=O)c2ccsc2)CC[C@]1(O)c1ccccc1	-2%
CCc1noc(-c2cn(C3CCN(C(=O)c4cccc(F)c4)CC3)nn2)n1	0%
O=C(Nc1cccc2ccccc12)O[C@@H]1CO[C@H]2[C@@H]1OC[C@@H]2NS(=O)(=O)Cc1ccccc1	-2%
COc1ccc(-c2noc([C@@H](C)NC(=O)C3CCCCC3)c2C(=O)O)cc1	2%[70.6 µM]
CN1C(=O)CCC2(CNC(=O)c3nn(C)c4ccccc34)CCCC=C12 (stereo unspecified)	2%
CCc1n[nH]c(CC2CCN(C(=O)c3ccccc3)CC2)n1	-2%
COc1ncccc1-c1cc(C(=O)N(C)CCN(C)C)c2c(c1)ncn2C	1%[70.6 µM]
COCCOC1CCN(S(=O)(=O)c2c(C)noc2C)CC1	0%

# Screening results deposited in PubChem by National Center for Advancing Translational Sciences (NCATS).
